PKD1 kinase inh = inhibitors of human PKD1 kinase; AID 797; PKD1 kinase fluorescence polarization assay; inhibition, %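 (about 10 µM by stock and volumes)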; 200,000 tested, 0.056% active;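 active means inhibition of 50% or more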;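 further: controls were vehicle for no effect and a reference inhibitor for full effect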
Target sequence (Q15139 whole entry, looked up): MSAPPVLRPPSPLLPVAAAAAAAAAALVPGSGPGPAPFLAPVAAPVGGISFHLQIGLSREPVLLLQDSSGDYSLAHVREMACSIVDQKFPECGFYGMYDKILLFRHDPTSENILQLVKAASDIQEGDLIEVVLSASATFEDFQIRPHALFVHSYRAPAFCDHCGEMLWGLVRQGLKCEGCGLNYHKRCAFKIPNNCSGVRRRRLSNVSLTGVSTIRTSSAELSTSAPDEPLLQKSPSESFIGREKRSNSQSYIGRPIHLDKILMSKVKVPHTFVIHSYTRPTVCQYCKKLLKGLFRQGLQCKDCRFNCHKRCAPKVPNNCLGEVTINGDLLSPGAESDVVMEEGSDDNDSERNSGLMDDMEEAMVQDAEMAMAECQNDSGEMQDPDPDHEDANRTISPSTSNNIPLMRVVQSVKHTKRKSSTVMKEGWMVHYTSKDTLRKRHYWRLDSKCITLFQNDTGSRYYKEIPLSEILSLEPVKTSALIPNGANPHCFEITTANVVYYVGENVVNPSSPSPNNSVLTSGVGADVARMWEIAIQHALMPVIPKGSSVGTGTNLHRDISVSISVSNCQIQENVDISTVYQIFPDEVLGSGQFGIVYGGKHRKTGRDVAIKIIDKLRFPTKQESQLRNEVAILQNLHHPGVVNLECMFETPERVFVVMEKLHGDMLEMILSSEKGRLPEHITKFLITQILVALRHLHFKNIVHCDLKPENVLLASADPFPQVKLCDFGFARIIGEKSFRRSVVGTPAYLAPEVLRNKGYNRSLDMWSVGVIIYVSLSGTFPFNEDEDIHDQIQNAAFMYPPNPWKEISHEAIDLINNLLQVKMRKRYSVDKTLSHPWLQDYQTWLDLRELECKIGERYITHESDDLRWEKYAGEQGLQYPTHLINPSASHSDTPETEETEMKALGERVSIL
INS promoter inh = TRM-6 insulin promoter activity inhibition; TRM-6 cells (human fetal islet line), insulin promoter-eGFP reporter, imaging; reporter expression induced with tamoxifen; inhibition, % at 2 µM; 130,000 tested, 0.9% active;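 active means inhibition above the mean plus 3 SD, with well images judged a real hit on visual review, cut at about 60% in these data, passing the limit was not always enough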
HSV augment = increases HSV replication in cells; HSV replication augmentation in cells, fold increase; maximum fold increase; 220,000 tested, 0.005% active;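 active means peak rise of 1.5-fold or more in the series; tested in PC3 cells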;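 further: first round at 10 µM; read as green reporter fluorescence; hits show the peak of a series up to 25 µM; 1 = signal of infected wells without compound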
RGS16-Gao = regulators of human RGS16-Galphao interaction; bead-based flow cytometry RGS16-Galphao binding, fluorescence; actives lie on both sides; binding response (% of control), % at 10 µM; 220,000 tested, 0.38% active;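 active means below 25% or above 175%, edge rows of some plates excepted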;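 further: Galphao activated by GDP with aluminum fluoride before binding; 100% = wells without compound and 0% = beads without RGS; some results beyond the cut were filed as inactive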
GALR2 agonist = activates the human galanin receptor 2; 140,000 tested, 0.48% active; AID 803; activation, %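 (tested at 5 µM)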; GALR2-expressing cells, agonist activation read-out; O43603;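 active means above mean plus 3 SD of all compounds, about 5% in these data, not always enough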;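 further: 0% = vehicle buffer wells and 100% = reference agonist at full effect; tested in CHO reporter cells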
INS promoter inh cell count = second read-out of INS promoter inh, no call of its own (marks repeat the call); normalized cell count, %; measured here: cell count, toxicity; reference of the scale not given here;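 cells exposed to compound for 48 h; stained nuclei by imaging scaled within each plate; lower means fewer cells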
HSV augment primary fold = further read-out of HSV augment, marked with its call; fold increase; compound at 10 µM; measured here: primary screen fold increase 10 uM; tested in PC3 cells;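 GFP signal in the first replicate; 1 = infected wells without compound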
Numbers without * were called inactive; i = inactive; . = no result given.

item	SMILES	GALR2 agonist	HSV augment primary fold	RGS16-Gao	INS promoter inh	PKD1 kinase inh	INS promoter inh cell count	HSV augment
1	O=C(COc1cccc2c1CCN(Cc1ccccc1)C2=O)N1CCCCC1	.	1	107	-83	-1	73	i
2	CCCCN1C(=S)NC[C@@H]1Cc1cccc2ccccc12	.	0.81	92	.	.	.	i
3	O=C(/C=C/c1ccc(Cl)cc1)Nc1ccc(N2CCCCC2)cc1	-0.8	1	103	.	11	.	i
4	COc1ccc(N(CC(=O)NCCSc2ccccn2)S(C)(=O)=O)cc1	-1.9	0.65	98	-57	5	118	i
5	COC(=O)CCC(=O)Nc1nc(-c2ccccc2)cs1	-3.2	0.81	.	.	-2	.	i
6	NC(=O)CN1CCOCCOCCN(CC(N)=O)CCOCC1	-1.4	0.68	105	36	-9	66	i
7	C/C(=N/NS(=O)(=O)c1ccccc1)c1ccc(NC(=O)C(F)(F)F)cc1	0.4	0.92	98	33	15	106	i
8	Cc1ccc(S(=O)(=O)N(Cc2cc3cccc(C)c3[nH]c2=O)c2ccccc2)cc1	0.4	0.95	94	-75	14	67	i
9	COc1ccc(CNC(=O)CCn2cccc2)cc1	-2.2	.	100	4	-5	169	.
10	CNC(=S)Nc1cccc(C(=O)OC)c1	.	1	96	.	.	.	i
11	CN(CC(O)CON=C1c2ccccc2-c2ccccc21)S(=O)(=O)c1ccc(Br)cc1 (configuration not stated)	11*	0.93	148	.	-5	.	i
12	O=S(=O)(c1ccc(Br)s1)N1CCN(c2ncccn2)CC1	-1.4	1.1	106	-17	-9	98	i
13	CCn1cc(C(=O)O)c(=O)c2cc(F)c(N3CCN(C(=S)NC(=O)c4ccccc4C)CC3)cc21	.	0.96	101	.	.	.	i
14	CC(=O)Nc1ccccc1NC(=O)C(F)(F)F	-2.0	0.98	104	-267	1	54	i
15	NC12CC3CC(C1)CC(O)(C3)C2	-1.3	1	102	23	-14	67	i
16	COc1ccc(CCNC(=O)CCNC(=O)c2ccc(Br)cc2)cc1OC	-1.6	0.8	113	.	-9	.	i
17	COc1ccc(NC(=S)N/N=C/c2cccn2Cc2ccccc2F)cc1	.	0.87	97	.	1	.	i

Sorted by SMILES length (descending): some entries from above
item	SMILES	GALR2 agonist	HSV augment primary fold	RGS16-Gao	INS promoter inh	PKD1 kinase inh	INS promoter inh cell count	HSV augment
11	CN(CC(O)CON=C1c2ccccc2-c2ccccc21)S(=O)(=O)c1ccc(Br)cc1 (configuration not stated)	11*	0.93	148	.	-5	.	i
7	C/C(=N/NS(=O)(=O)c1ccccc1)c1ccc(NC(=O)C(F)(F)F)cc1	0.4	0.92	98	33	15	106	i
3	O=C(/C=C/c1ccc(Cl)cc1)Nc1ccc(N2CCCCC2)cc1	-0.8	1	103	.	11	.	i

GALR2 agonist: entries above that show a hit.
# | structure | GALR2 agonist | HSV augment primary fold | RGS16-Gao | PKD1 kinase inh | HSV augment
11 | CN(CC(O)CON=C1c2ccccc2-c2ccccc21)S(=O)(=O)c1ccc(Br)cc1 (configuration not stated) | 11* | 0.93 | 148 | -5 | i

Full records, quoted from the list. Values in the order: GALR2 agonist | HSV augment primary fold | RGS16-Gao | INS promoter inh | PKD1 kinase inh | INS promoter inh cell count | HSV augment
Entry for `O=C(COc1cccc2c1CCN(Cc1ccccc1)C2=O)N1CCCCC1` → . | 1 | 107 | -83 | -1 | 73 | i
Entry for `COc1ccc(CCNC(=O)CCNC(=O)c2ccc(Br)cc2)cc1OC` → -1.6 | 0.8 | 113 | . | -9 | . | i

Three entries out of the list above, sorted by the value under RGS16-Gao, smallest number first.
no. | Compound | RGS16-Gao
8 | Cc1ccc(S(=O)(=O)N(Cc2cc3cccc(C)c3[nH]c2=O)c2ccccc2)cc1 | 94
10 | CNC(=S)Nc1cccc(C(=O)OC)c1 | 96
14 | CC(=O)Nc1ccccc1NC(=O)C(F)(F)F | 104

From PubChem
